Compound activity as filed in PubChem.
Mtb growth = Mycobacterium tuberculosis H37Rv growth inhibition, cell based, confirmatory dose response (AID 1949); M. tuberculosis H37Rv growth inhibition; most inactive calls were filed without a number and no value below 0 was filed; inhibition, % at 10 µg/mL; hits with a dose series show IC50 in µg/mL; actives 1.6% (n = 100,000);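 active means confirmed in a dose series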;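 further: bacteria grown 7 days with compound before Alamar blue readout; 0% = untreated bacteria and 100% = reference antibiotic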
Numbers without * were called inactive; i = inactive. Not all compounds are listed; the hit share may differ from the screen's.

SMILES	Mtb growth
Cc1cc(C)nc(/N=C2\NC(=O)CC(C(=O)O)N2c2cccc(C(F)(F)F)c2)n1 (stereo not drawn)	2.1%
CC(Oc1ccc(Cl)cc1Cl)C(=O)N(c1ccccc1)c1ccccc1 (stereo not drawn)	i
COc1ccc(S(=O)(=O)N(CC(=O)Nc2cccc(OC)c2)c2ccccc2OC)cc1	i
COc1cccc(OC)c1C(=O)NC(=S)Nc1ccc2c3c(cccc13)CC2	i
COc1ccc(OC)c(NC(=O)COc2ccc(Cl)cc2Cl)c1	i
COc1ccc(-c2nc3cc(C(C)C)ccc3o2)cc1NC(=O)c1cccs1	40.0%
COc1ccc(Cl)cc1NC(=O)NNC(=O)c1ccccn1	i
O=C(c1cn(-c2ccccc2)nc1-c1ccc(Cl)s1)N1CCOCC1	3.1%
CCCn1nnc(NC(=O)c2ccc(Cl)cc2)n1	i
COCCNS(=O)(=O)c1cc([N+](=O)[O-])ccc1C	i
COc1ccccc1-c1c(C(F)(F)F)oc2cc(OC(=O)c3ccccc3F)ccc2c1=O	i
CC(NC(=O)C12CC3CC(CC(C3)C1)C2)c1ccc2c(c1)OCCO2 (stereo not drawn)	i
O=C(Nc1ccc(Cl)cc1C(F)(F)F)c1ccc2ccccc2c1	i
CCOC(=O)c1ccccc1NC(=O)CN(c1ccccc1C)S(C)(=O)=O	i
CCn1cnc2scc(-c3cccc([N+](=O)[O-])c3)c2c1=O	2.6%
Fc1ccccc1NC(=S)Nc1cc(Cl)ccc1Oc1ccccc1	i
Cc1ccc(C)c(NC(=S)NCc2ccc3c(c2)OCO3)c1	1.9%
CSc1nc(-c2ccc(Cl)cc2)nn1C(C)=O	i
Cc1cc(NC(=O)COc2ccccc2C)no1	i
CC1CCCC(C)N1CC(O)COc1ccc2c(c1)OCO2 (stereo not drawn)	i
COC(=O)C1=CNC=C(C(=O)OC)C1c1ccc(Cl)cc1Cl	2.2%
Cc1ccc(C(=O)OCC(=O)c2ccc(Br)cc2)cc1S(=O)(=O)N1CCCC1	i
Cc1ccc(C(=O)Nc2ccccn2)cc1S(=O)(=O)N1CCCCC1	i
COCCn1c(Cc2ccccc2)nnc1SCC(=O)Nc1ccc(Br)cc1C	i
CSc1nc(C)c(C(C)=O)cc1C#N	i
Cc1cccc(C(=O)Nc2ccccc2C#N)c1	1.8%
NS(=O)(=O)c1ccc(CCNC2CC(=O)N(Cc3ccc(Cl)cc3)C2=O)cc1 (stereo not drawn)	i
COc1ccc(Cl)cc1NC(=O)CC(C)c1ccccc1 (stereo not drawn)	0.2%
CCN(CC)C(=O)c1ccc2c(c1)C1C=CCC1C(C(=O)O)N2 (stereo not drawn)	i
COc1ccc(N(C(C)C(=O)N2CCOCC2)S(C)(=O)=O)cc1 (stereo not drawn)	i
OCCN1CCN(C(=S)NC2CCCC2)CC1	i
O=C(NCc1ccc2c(c1)OCO2)c1cc(F)c(F)cc1Cl	i
O=C(Nc1cccc(NS(=O)(=O)c2ccc(Cl)cc2)c1)c1ccco1	2.1%
COc1ccccc1NC(=S)N1CCCC1	2.0%
CN1CCN(c2oc(-c3ccccc3Cl)nc2C#N)CC1	i
COC(C(=O)Nc1ccc(S(=O)(=O)Nc2cccc(Cl)c2C)cc1)c1ccccc1 (stereo not drawn)	i
CCN1CCN(c2nc(-c3ccc(C)cc3)nc3ccccc23)CC1	19.8%
CC(=O)c1cccc(NC(=S)Nc2ncn(Cc3cccc(C(F)(F)F)c3)n2)c1	i
Cc1ccc(S(=O)(=O)NCCSc2nnnn2-c2cc(C)ccc2C)cc1	0.6%
Cc1ccc(N(Cc2ccc(F)cc2)S(C)(=O)=O)c(C)c1	2.2%
CCOc1ccc2nc(SCC(=O)O)oc2c1	i
CCOC(=O)C1=C(c2ccc(OC)cc2)C(=O)c2ccccc2C1=O	6.6µg/mL*
CCCNC(=O)c1cc(-c2ccc(C)s2)nc2ccccc12	i
COc1ccc(S(=O)(=O)Nc2ccc(NC(C)=O)cc2)c(Cl)c1Cl	i
O=C(Cn1cnc2scc(-c3ccc(F)cc3)c2c1=O)N1CCOCC1	i
COc1ccc(C(=O)NC(=S)Nc2ccc(Cl)c(-c3nc4cc(C)ccc4o3)c2)cc1[N+](=O)[O-]	i
CCc1cccc(NC(=O)C(C)Oc2ccc(Cl)cc2C)c1 (stereo not drawn)	i
O=C(O)c1cccc(S(=O)(=O)NCc2ccccc2)c1	i
O=C(NC(c1ccccc1)c1ccccc1)C(Cc1ccccc1)N1C(=O)c2ccccc2C1=O (stereo not drawn)	i
O=C(NC1=NCCS1)c1cc(-c2cccnc2)nc2ccc(Br)cc12	0.9%
The results go on.
SMILES	Mtb growth
COC(=O)c1sc(NC(=S)NCCc2ccc(Cl)cc2)c(C(=O)OC)c1C	3.9%
COc1ccc(NC(=O)CSc2nnc(C)s2)c([N+](=O)[O-])c1	i
CCCCC(=O)Nc1ccc(NC(=O)COc2ccc(Cl)c(C)c2)cc1OC	i
Cc1cccc(OCC(=O)Nc2ccc(CN3CCOCC3)cc2)c1C	i
O=S(=O)(c1ccc(-c2ccccc2)cc1)N1CCCCCC1	9.3%
CCOc1ccc(OCC)c(S(=O)(=O)n2cnc(C)c2)c1	i
COC(=O)c1sc(NC(=O)CN2CCCCC2C)c(C(=O)OC)c1C (stereo not drawn)	i
CCOc1cccc(C(=O)Nc2ccc(C)c(C)c2)c1	1.6%
C=CCN(CC=C)C(=O)Nc1ccc(OC)c(OC)c1	i
Cc1ccc(OCC(O)Cn2cnc(-c3ccccc3)c2-c2ccccc2)cc1 (stereo not drawn)	34.3%
CN(C)CC1CC(C(C)(C)C)CCC1=O (stereo not drawn)	2.45µg/mL*
CN(C)S(=O)(=O)c1ccc(NC(=O)COc2ccc([N+](=O)[O-])cc2)cc1	1.7%
CCC(C)C(=O)Nc1ccc(OC)cc1[N+](=O)[O-] (stereo not drawn)	i
O=C(NCCc1c[nH]c2ccccc12)NC12CC3CC(CC(C3)C1)C2	i
Cc1occc1C(=O)Nc1ccccc1[N+](=O)[O-]	i
CCC(C)NS(=O)(=O)c1ccc(OCC(=O)NCC2CCCO2)cc1 (stereo not drawn)	i
Cc1nc2nc(NCc3cccc(Br)c3)[nH]n2c(=O)c1C	i
Cc1ccc2oc(=O)n(CCCOc3ccc(C(C)(C)C)cc3)c2c1	i
COc1ccc(S(=O)(=O)N2CCC(C(=O)NCc3ccc(C)cc3)CC2)cc1C	i
CC(=O)c1cccc(NS(=O)(=O)c2ccc(F)cc2)c1	i

Taken from the results shown, 17 compounds:
SMILES	Mtb growth
Cc1cccc(OCC(=O)Nc2ccc(CN3CCOCC3)cc2)c1C	i
O=S(=O)(c1ccc(-c2ccccc2)cc1)N1CCCCCC1	9.3%
CCOc1ccc(OCC)c(S(=O)(=O)n2cnc(C)c2)c1	i
COC(=O)c1sc(NC(=O)CN2CCCCC2C)c(C(=O)OC)c1C (stereo not drawn)	i
CCOc1cccc(C(=O)Nc2ccc(C)c(C)c2)c1	1.6%
C=CCN(CC=C)C(=O)Nc1ccc(OC)c(OC)c1	i
Cc1ccc(OCC(O)Cn2cnc(-c3ccccc3)c2-c2ccccc2)cc1 (stereo not drawn)	34.3%
CN(C)CC1CC(C(C)(C)C)CCC1=O (stereo not drawn)	2.45µg/mL*
CN(C)S(=O)(=O)c1ccc(NC(=O)COc2ccc([N+](=O)[O-])cc2)cc1	1.7%
CCC(C)C(=O)Nc1ccc(OC)cc1[N+](=O)[O-] (stereo not drawn)	i
O=C(NCCc1c[nH]c2ccccc12)NC12CC3CC(CC(C3)C1)C2	i
Cc1occc1C(=O)Nc1ccccc1[N+](=O)[O-]	i
CCC(C)NS(=O)(=O)c1ccc(OCC(=O)NCC2CCCO2)cc1 (stereo not drawn)	i
Cc1nc2nc(NCc3cccc(Br)c3)[nH]n2c(=O)c1C	i
Cc1ccc2oc(=O)n(CCCOc3ccc(C(C)(C)C)cc3)c2c1	i
COc1ccc(S(=O)(=O)N2CCC(C(=O)NCc3ccc(C)cc3)CC2)cc1C	i
CC(=O)c1cccc(NS(=O)(=O)c2ccc(F)cc2)c1	i

The list continues:
SMILES	Mtb growth
O=S(=O)(Nc1ccc(F)cc1)c1ccc(NC(=S)Nc2ccccc2)cc1	0.3%
O=S(=O)(c1ccc(NC(=S)Nc2ccc(F)c(Cl)c2)cc1)N1CCCC1	4.1%
Cc1nc2ccccc2n1Cc1c(F)cccc1Cl	i
CC1=C(C)CC(C(=O)Nc2cccc(Cl)c2)C(C(=O)O)C1 (stereo not drawn)	i
Cc1cc(C)n(-c2nc(C)nc(N)n2)n1	15.5%
CCOC(=O)c1c(NC(=O)c2cccc([N+](=O)[O-])c2C)sc2c1CCC2	i
COc1ccc(Cl)cc1NC(=O)CCC(=O)Nc1cc(Cl)ccc1OC	7.1%
O=C(OCc1ccc(S(=O)(=O)N2CCOCC2)cc1)c1ccc2c(c1)-c1ccccc1C2=O	i
CC(C)(C)c1ccc(OCC(=O)N2CCCC2)c(Br)c1	1.9%
Cc1ccc(NC(=O)C2C(c3ccccc3)=C2c2ccccc2)c(C)c1	i
O=C(OCc1ccccc1)c1ccc2c(c1)C(=O)N(c1nc(-c3ccccc3)cs1)C2=O	i
CCCC(=O)Nc1cccc(NC(=O)C(c2ccccc2)c2ccccc2)c1	i
O=C(c1cc(-c2ccccc2)on1)N1CCCc2ccccc21	i
CCOc1ccccc1Oc1coc2cc(OC(=O)c3ccco3)ccc2c1=O	i
CCc1ccc(C(=O)N2CCCC2)s1	i
CCOc1ccc(NS(=O)(=O)c2ccc(F)c(Cl)c2)cc1	7.5%
Cc1cc2nc(S(=O)(=O)Cc3cccc(C(F)(F)F)c3)[nH]c2cc1C	0.6%
Cn1cc(Cl)c(C(=O)NC2CCCCCC2)n1	i
O=C(Nc1nc2ccccc2s1)C(Cl)Cl	i
C=CCNC(=O)C1CCN(S(=O)(=O)c2ccc(Br)cc2)CC1	i
COC(=O)c1ccc(Oc2nc(OC)nc(N(C)C)n2)cc1	0.9%
CCSCCOC(=O)C1=C(C)NC2=C(C(=O)CC(C)(C)C2)C1c1ccccc1C(F)(F)F (stereo not drawn)	i
CCOc1ccc(NC(=O)NNC(=O)c2cc(Br)ccc2O)cc1	i
CCCOc1ccc(N2C(=O)CC(N3CCC(c4nc5ccccc5o4)CC3)C2=O)cc1 (stereo not drawn)	i
C=CCc1ccc(OCCOCCOc2ccc(Br)cc2)c(OC)c1	i
FC(F)(F)c1cc(-c2ccccc2)nc(NCC2CCCO2)n1 (stereo not drawn)	4.3%
Cc1cc(Cl)ccc1OCCN1CC(C)OC(C)C1 (stereo not drawn)	i
Cc1nnc(SCC(=O)c2ccc(Cl)cc2Cl)s1	8.5%
CCOC(=O)N1c2ccccc2CC1C (stereo not drawn)	0.6%
Cc1cc(C)nc(Nc2nc(C)c3cccc(C)c3n2)n1	i
CCOc1cc(C2C3=C(CCCC3=O)NC3=C2C(=O)CCC3)cc(Cl)c1OCc1cccc(F)c1	i
O=C(COc1ccc(S(=O)(=O)N2CCOCC2)cc1)N1CCCC1	i
COc1ccccc1Nc1nc(-c2ccc([N+](=O)[O-])cc2)nc2ccccc12	i
CCNc1nc(NCC)nc(SCCOc2ccc(Br)cc2)n1	4.24µg/mL*
CC(C)(C)c1ccc(OCC(=O)Nc2ccc(S(=O)(=O)Nc3ccc(F)cc3)cc2)cc1	i
COc1cc(/C=C2/C(=O)N(c3ccc(C(=O)O)cc3)N=C2C)c([N+](=O)[O-])cc1OC	i
Cc1cc(NC(=O)CSc2nnnn2-c2ccccc2)ccc1Cl	i
CCCCC1(CC(=O)N2CCCCC2)C(=O)N(c2ccccc2)N(c2ccccc2)C1=O	i
CC(C)C(C(=O)Nc1cccnc1)N1C(=O)c2ccccc2C1=O (stereo not drawn)	i
O=C(NCCN1CCN(C(=O)c2c(Cl)cccc2Cl)CC1)c1c(Cl)cccc1Cl	i
CCOc1ccc(OCCOCCn2cnc3ccccc3c2=O)cc1	i
COc1cc(C)nc(NS(=O)(=O)c2ccccc2)n1	i
COC(=O)CSC1=C(C#N)C(c2ccccc2F)C(C(=O)Nc2ccccc2OC)=C(C)N1 (stereo not drawn)	i
CN(C)c1ccc(NC(=O)C2CC2c2ccccc2)cc1 (stereo not drawn)	i
O=c1cc(-c2ccccc2)nc2c(-c3cccc4ccccc34)c(Cc3ccccc3)[nH]n12	41.9µg/mL*
Cc1ccc(S(=O)(=O)Nc2nc(C)cc(C)n2)cc1	i
COc1cc(Cl)c(CNC(C)(C)CO)cc1OC	i
CC(NC(=O)c1ccc(Br)cc1)c1ccc2c(c1)OCCO2 (stereo not drawn)	5.81µg/mL*
CCOC(=O)C1CCN(CC(=O)Nc2ccc(-c3nc4ccc(C)cc4s3)cc2)CC1	i
CN(CC(=O)Nc1ccc(S(N)(=O)=O)cc1)S(=O)(=O)c1cc(Cl)ccc1Cl	i
Next compounds follow:
SMILES	Mtb growth
CCCCOc1ccc(C(=O)N2CCN(c3ccc([N+](=O)[O-])c(NCc4ccccc4)c3)CC2)cc1	4.1%
CC(NS(=O)(=O)c1ccc(OCC(=O)Nc2ccc(Br)cc2F)cc1)c1ccccc1 (stereo not drawn)	i
COc1ccc(CC(=O)Nc2ccccc2-c2ccccc2)cc1	0.7%
COc1ccccc1OCC(=O)Oc1ccc(C(C)=O)cc1	0.9%
CCN1CCN(C(=O)COc2ccc3ccccc3c2)CC1	i
COC(=O)CN(c1ccc(C)cc1)S(=O)(=O)c1ccc(OC)c(OC)c1	i
NCCNc1ccc([N+](=O)[O-])cc1Cl	i
COC(=O)c1c(C)oc2ccc(NS(=O)(=O)c3cc(C)ccc3C)cc12	i
COc1ccc(C2(CNC(=S)Nc3ccccc3)CCCC2)cc1OC	i
CC(=O)Nc1nc(CC(C)C)cc(-c2ccccc2)c1C#N	i
COc1ccc(-c2nn(-c3ccccc3)cc2C(N)=O)cc1OC	i
COc1ccccc1NC(=O)CSc1nnnn1-c1cc(C)cc(C)c1	0.7%
CC(=O)c1cccc(N(CC(=O)NCCSC2CCCCC2)S(C)(=O)=O)c1	i
Cc1ccc(Nc2ncnc3sc(C)c(C)c23)cc1Br	i

Arranged by heavy-atom count (rising): 3 of the compounds above.
SMILES	Mtb growth
Cc1ccc(Nc2ncnc3sc(C)c(C)c23)cc1Br	i
CC(=O)Nc1nc(CC(C)C)cc(-c2ccccc2)c1C#N	i
COc1ccccc1NC(=O)CSc1nnnn1-c1cc(C)cc(C)c1	0.7%
